# FGF22 binding – shifts melting point of recombinant human FGF22. AID 651658. 340,000 tested, 1.5% active. calls only at 9.99 µM. recombinant FGF22 thermal shift, SYPRO orange fluorescence; percent of sucrose octasulfate shift, DMSO zero;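 active means melting point raised past a set limit in the mean and every replicate; three in four hits are not shown here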
# ALR H2O2 inh – inhibitors of human sulfhydryl oxidase ALR; P55789; purified ALR, DTT oxidation, H2O2 HRP-luminol luminescence; inhibition, % (test concentration not listed); 290,000 tested, 3.8% active; AID 485317;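 active means mean and each replicate at 75% or more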;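 further: stock transfer was 7.5 nL into about 7.5 µL; 0% = neutral wells and 100% = wells with inactivated enzyme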
# Target sequence (P55789 whole entry, looked up): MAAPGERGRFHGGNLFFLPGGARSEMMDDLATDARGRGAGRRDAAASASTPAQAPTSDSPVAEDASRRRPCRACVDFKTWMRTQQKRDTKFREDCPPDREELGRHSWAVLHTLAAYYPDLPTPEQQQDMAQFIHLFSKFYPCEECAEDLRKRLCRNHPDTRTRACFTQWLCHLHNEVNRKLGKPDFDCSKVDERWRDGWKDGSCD
# Ecoli rRNA inh – inhibits bacterial ribosomal RNA function over humanized ribosomes; E. coli WT GFP vs humanized-ribosome RFP mutants, fluorescence, 24 h; active compounds read low; DMSO median 0, no signal -100; GFP signal change (wild-type ribosome), % (no concentration beside the values); 350,000 tested, 1.6% active; AID 720706;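 active means significant combined selectivity score with lowered wild-type GFP, culture density cut under 30%, mutant RFP and density less affected; inactive means any of these conditions unmet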; further: one replicate is shown; some compounds called inactive have numbers as strong as hits
# UCH37 inh – human UCH37 deubiquitinating enzyme inhibition | Q9Y5K5 | purified proteasome/UCH37, Ub-AMC cleavage fluorescence | inhibition, % (test concentration not listed) | 330,000 tested, 0.33% active | AID 588478;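 active means mean of two replicates above 20%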;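 further: 0% = compound-free wells with enzyme and 100% = wells lacking proteasome; stock transfer was 100 nL into about 20 µL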
# Target sequence (Q9Y5K5 whole entry, looked up): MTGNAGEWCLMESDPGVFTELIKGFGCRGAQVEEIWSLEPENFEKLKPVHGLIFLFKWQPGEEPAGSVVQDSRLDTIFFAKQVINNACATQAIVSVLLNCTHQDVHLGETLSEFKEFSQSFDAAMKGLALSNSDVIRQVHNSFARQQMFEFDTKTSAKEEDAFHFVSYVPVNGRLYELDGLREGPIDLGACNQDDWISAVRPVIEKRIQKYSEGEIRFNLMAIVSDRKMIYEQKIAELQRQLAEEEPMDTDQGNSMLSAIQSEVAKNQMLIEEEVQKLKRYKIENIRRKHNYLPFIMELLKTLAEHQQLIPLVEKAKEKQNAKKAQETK
#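 Material: human UCH37 enzyme supplied as purified proteasome complex / Amount: 0.15 nM proteasome as dispensed / Buffer or medium: pH 7.4 Tris-HCl (50 mM) with ovalbumin, ATP-MgCl2, DTT / Times: preincubation 30 min, reaction 25 min, room temperature / Technique: AMC fluorescence from Ub-AMC cleavage, excitation 355 nm, emission 460 nm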
# HNF4A DNA FP – change in binding of human HNF4 alpha to DNA; P41235; activity change, % at 10 µM; 360,000 tested, 0.3% active; AID 1224865; HNF4a-FITC DNA binding, fluorescence polarization, 1 h; in the data active means activity change above about 30%, passing the limit was not always enough;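 further: controls were the assay level and a saturating level of protein; the project sought stronger binding though the title names inhibitors; some compounds called inactive have numbers as strong as hits; positive values seem to mean higher polarization but the record does not say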
# E coli growth – blocks Escherichia coli growth; OD600 absorbance (test concentration not listed); OD600, 23 h; active compounds read low; AID 1053175; 330,000 tested, 0.21% active;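 active means OD600 absorbance below the run mean of sample wells minus 3.6 SD, in any replicate, cut at about 0.56 in these data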;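 further: stock transfer was 300 nL into about 60 µL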
# Beta2AR agonist – human beta-2 adrenergic receptor agonism by FAP; Am2.2-beta2AR cells, FAP receptor internalization, flow cytometry; reference of the scale not given here; response, % (no concentration beside the values); 340,000 tested, 0.43% active; AID 504454;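 active means response above a set limit, near 3 SD of response in nonfluorescent compounds, cut at about 42% in these data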;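 further: stock transfer was 100 nL into about 11 µL; a reference agonist was the positive control; negative values mostly stem from fluorescent compounds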
# Target sequence (P07550 whole entry, looked up): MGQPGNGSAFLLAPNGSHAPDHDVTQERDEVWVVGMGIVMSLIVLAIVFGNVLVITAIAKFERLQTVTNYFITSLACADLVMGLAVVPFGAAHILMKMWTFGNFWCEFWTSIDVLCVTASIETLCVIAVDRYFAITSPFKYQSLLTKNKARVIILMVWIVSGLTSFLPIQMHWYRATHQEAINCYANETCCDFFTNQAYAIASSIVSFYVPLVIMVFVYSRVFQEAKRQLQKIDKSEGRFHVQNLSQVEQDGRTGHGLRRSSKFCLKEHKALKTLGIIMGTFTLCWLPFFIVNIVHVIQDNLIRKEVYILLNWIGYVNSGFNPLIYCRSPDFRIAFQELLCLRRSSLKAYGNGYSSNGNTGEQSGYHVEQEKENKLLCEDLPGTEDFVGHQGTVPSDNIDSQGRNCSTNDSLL
# Ecoli rRNA inh OD600 – also measured in Ecoli rRNA inh; calls as there; OD600 change, %; measured here: OD600 growth;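 optical density of the mix in the first replicate; 0 = DMSO median and -100 = no signal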
# Ecoli rRNA inh RFP – further read-out of Ecoli rRNA inh, marked with its call; RFP signal change, %; measured here: RFP humanized mutant strains;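 first replicate; 0 = DMSO median and -100 = no signal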
# The depositor's hits bear a star; i = inactive; . = not tested or not shown; & = joins results of further samples. Not all compounds are listed (hit frequency here may not be typical).
SMILES,FGF22 binding,ALR H2O2 inh,Ecoli rRNA inh,Ecoli rRNA inh OD600,Ecoli rRNA inh RFP,UCH37 inh,HNF4A DNA FP,E coli growth,Beta2AR agonist
CC(C)NC(=O)N(C)C[C@H]1Oc2ccc(NC(=O)Cc3ccccc3)cc2C(=O)N([C@H](C)CO)C[C@@H]1C,i,-1,7&13,4&3,-3.7&10,3.9,-0.9,0.7,-6
O=C1CC(Nc2ccc(N3CCOCC3)cc2)C(=O)N1c1ccccc1 (stereo unspecified),.,99*,.,.,.,0.6,3.4,0.64,4
Cc1c(/C=N/NC(=O)c2cccnc2)c2ccccc2n1Cc1ccccc1,i,0,17,26,4.9,.,6.2,.,5
O=C(CC(c1ccccc1)c1ccccc1)Nc1ncn[nH]1,.,1,.,.,.,-1.6,-0.7,0.76,1
O=C(NCc1ccccc1F)C1CCCN(C(=O)Nc2ccccc2)C1 (stereo unspecified),i,-5,.,.,.,3.2,-0.7,0.65,-2
CC(C)c1ccc(CN2CCN(C(=O)CSc3nnnn3C3CC3)CC2)cc1,i,.,.,.,.,0.8,-1.7,0.68,6
CN(C(=O)c1cccc(NC(=O)Cc2ccc(NC(=O)C3CCN(S(=O)(=O)c4cccc([N+](=O)[O-])c4)CC3)cc2)c1)C1CCCCC1,i,.,4,6,-1.2,0.9,4.6,0.71,-2
Cc1csc(=O)n1CCC(=O)OCc1nnc(-c2ccccc2)o1,i,-28,1,-1,2.4,-0.5,3.2,0.63,-1
Cn1nc(C(C)(C)C)cc1NC(=O)C1(C)CCN1C(=O)C1(c2ccccc2)CC1 (stereo unspecified),i,.,-4,-12,-1.1,.,-4.3,.,.
CCc1cc2c(=O)[nH]c(-c3ccncc3)nc2s1,i,-4,-13,-10,7.1,-34,4.8,0.65,2
CCCCN(C)C(=O)Cn1nc(-c2ccc(Cl)cc2)ccc1=O,i,-9,-4,13,2.1,1.8,-1.1,0.68,-7
CC(=O)c1cccc(NC(=O)NCCc2c[nH]c3ccccc23)c1,i,-14,3,3,-0.3,1.2,0.8,0.66,3
C=C[C@@H](c1ccccc1)[C@](C)(O)C(=O)O,i,.,8,14,-1.0,.,-2.1,.,.
CCS(=O)(=O)N1CCC(C(=O)Nc2ccc3c(c2)CCC3)CC1,i,-5,1,6,-1.2,2.5,-1.2,0.7,2
COc1ccc(C)cc1N(CC(=O)Nc1ccc(S(=O)(=O)N2CCCC2)cc1)S(C)(=O)=O,i,-13,-4,-4,-0.5,0.4,5.2,0.64,10
O=C(NCCS(=O)(=O)N1CCN(c2ccccc2F)CC1)c1cc(=O)c2ccccc2o1,i,-8,14,16,3.9,1.3,0.8,0.68,4
CN(C)S(=O)(=O)c1cccc(NC(=O)c2cccc(N3C(=O)CCC3=O)c2)c1,i,.,10,8,1.0,3.2,-1.3,0.71,-3
COc1ccc(OC)c(S(=O)(=O)NCCOC23CC4CC(CC(C4)C2)C3)c1,i,-4,-33,-34,-2.1,1.9,0.1,0.62,-10
CC1(C)CC(=O)C2=C(C1)NC(=O)CC2c1cccc(F)c1 (stereo unspecified),.,3,.,.,.,2.9,3.1,0.73,1
CC(C)(C)C1CCc2c(sc(N)c2C(N)=O)C1 (stereo unspecified),.,49,.,.,.,.,4.0,.,3
CC(=O)OC[C@H]1O[C@@H](Sc2cccc3cccnc23)[C@H](OC(C)=O)[C@@H](OC(C)=O)[C@@H]1OC(C)=O,.,-19,.,.,.,-65,3.3,0.67,1
COCCNC(=O)C1(C)CCCN(Cc2cc(-c3ccccc3)n(C)n2)C1 (stereo unspecified),i,.,3,7,-1.3,.,0.1,.,.
CC(=O)C(C(c1ccccc1)N1CCOCC1)N1CCOCC1 (stereo unspecified),.,.,14,17,-0.2,3.2,5.0,0.66,2
CCOc1ccc(-n2nnc3c(=O)n(C/C=C/c4ccccc4)cnc32)cc1,i,-5,7,2,-8.8,0.6,-2.7,.,-6
Cc1ccc(S(=O)(=O)NCC(=O)N/N=C/c2ccc(Cl)cc2Cl)cc1,i,4,-35,-59,24,.,-1.4,.,0
# Other results follow.
SMILES,FGF22 binding,ALR H2O2 inh,Ecoli rRNA inh,Ecoli rRNA inh OD600,Ecoli rRNA inh RFP,UCH37 inh,HNF4A DNA FP,E coli growth,Beta2AR agonist
O=C(O)c1ccccc1C(=O)c1cccs1,.,8,.,.,.,-2.1,0.1,0.73,6
CC(C)COc1ccc(C(=O)NC(=S)Nc2ccc(CN3CCOCC3)cc2)cc1,.,-4,-2,2,1.3,5.5,-2.1,0.77,-15
CCn1c(C)c(C(C)=O)c(N2CCN(c3ccccn3)CC2)nc1=S,i,0,-9,7,-10,3.6,20,0.71,-16
O=[N+]([O-])c1ccc(Nc2nc(N/N=C/c3cccc(F)c3)nc(N3CCCC3)n2)cc1,i,-1,4,5,-1.2,.,2.0,.,8
O=C(CSc1nc2ccccc2c(=O)n1-c1ccc(F)cc1)NC1CC1,i,.,7,11,-1.1,1.2,0.9,0.64,-8
Cn1cnc([N+](=O)[O-])c1Sc1ccccc1,.,19,.,.,.,7.4,3.1,0.68,-1
COc1cc(/C=C2\SC(=S)N(NC(=O)c3ccc(O)cc3)C2=O)ccc1O,i,99*,-23,6,17,8.8,50*,0.7,-181
Cn1c(C(=O)N2CCC(C(N)=O)CC2)cc2cc(Cl)ccc21,i,.,8,-5,2.4,5.3,-0.5,0.74,-12
COc1ccc(Br)cc1C1N2CC3(C)CN1CC(C)(C2)C3=O (stereo unspecified),.,.,.,.,.,3.4,-1.6,0.72,3
CCOC(=O)c1c(C)[nH]c(C(=O)CN2CC(C)OC(C)C2)c1C (stereo unspecified),.,-2,.,.,.,4.7,-0.5,0.66,3
c1ccc(-c2cnnc(N3CCCCC3)n2)cc1,.,-2,.,.,.,-1.0,-1.3,0.71,-14
Cc1cc(NC(=O)CSc2nc(C(C)C)nc3sc4c(c23)CCCC4)no1,.,-5,.,.,.,-1.4,2.5,0.73,-13
CCCCN(C(=O)c1cc2c(s1)CCC2)c1c(N)n(CC(C)C)c(=O)[nH]c1=O,i,-1,5,12,3.5,2.8,-11,0.64,-2
COc1ccccc1C(C)NC(=O)CCOc1cccc(C)c1 (stereo unspecified),i,1,0,8,-1.0,1.0,1.1,0.72,-3
COc1cc(NC(=O)CN2CCCCCC2)cc(OC)c1,i,0,4,-4,-0.7,-0.7,-0.6,0.61,-1
CC(C)CC(c1nnnn1C(C)C)N1CCN(c2ccccc2)CC1 (stereo unspecified),.,25,.,.,.,4.3,-1.7,0.67,7
CCC(=O)N1CCc2cc(S(=O)(=O)NCCCN(CC)Cc3ccccc3)ccc21,.,0,.,.,.,4.5,0.8,0.66,-3
O=C(CN1C(=O)S/C(=C/c2cc(Br)cs2)C1=O)N1CCOCC1,.,-12,.,.,.,-6.1,4.6,0.69,1
O=NC1=C(c2c(O)[nH]c3ccccc23)CCCC1,i,2,5,-1,5.3,3.2,3.9,0.71,3
COc1ccc[nH]c1=O,i,-17,21,8,0.1,2.9,0.9,0.67,-4
CCOC(=O)C1CCN(C(=O)CN2C(=O)c3cccnc3Oc3ccccc32)CC1,i,7,-3,-5,-15,-2.1,1.3,0.68,17
O=C(O)c1ccc(Cl)c(S(=O)(=O)N2CCCCCC2)c1,i,-1,2,-9,-0.1,-1.4,-2.8,0.66,2
Cn1c(=O)[nH]c(=O)c2c1nc(NCCCO)n2CCOc1ccccc1,i,.,1,-3,-8.5,-1.1,-1.5,0.69,1
CCOc1cc(N2CCOCC2)c(OCC)cc1NC(=O)COC(=O)c1ccc(Cl)cc1N,i,-25,.,.,.,-2.5,-2.6,0.66,5
O=C(COC(=O)CCC(=O)c1cccs1)Nc1ccc(Cl)cn1,.,-4,11,7,4.3,-0.7,3.0,0.7,4
# The listing continues:
SMILES,FGF22 binding,ALR H2O2 inh,Ecoli rRNA inh,Ecoli rRNA inh OD600,Ecoli rRNA inh RFP,UCH37 inh,HNF4A DNA FP,E coli growth,Beta2AR agonist
Cc1cc(C)cc(C(O)c2ncc(-c3ccccc3Cl)[nH]2)c1 (stereo unspecified),i,.,0,-26,-3.5,.,-5.9,.,.
Cc1cc(C)cc(C(=O)NC(CC(N)=O)c2ccc(N3CCN(C)CC3)c([N+](=O)[O-])c2)c1 (stereo unspecified),i,-8,6,7,-1.0,4.4,2.8,0.66,-2
Cc1ccc(C2NS(=O)(=O)N=C2N)cc1 (stereo unspecified),.,-2,.,.,.,1.1,1.5,0.67,-1
CCN(CC)CCn1nc2c3c(cccc3c1=O)-c1ccccc1-2,i,-9,-23,-51,10,-3.0,-17,0.67,-2
COc1ccccc1NC(=O)c1ccc2snnc2c1,i,-16,2,4,-1.5,5.0,-0.8,0.71,-4
Cc1ccc(C(=O)CSc2nnc(-c3ccccc3)o2)cc1,.,.,.,.,.,1.7,-1.3,0.67,-4
COc1ccc(S(=O)(=O)N(CC(=O)Nc2cccnc2)c2ccccc2OC)cc1,i,0,-18,-23,-3.0,-1.1,-1.6,0.73,-1

# As entered above.
# Cc1cc(C)cc(C(O)c2ncc(-c3ccccc3Cl)[nH]2)c1 (stereo unspecified) @ Ecoli rRNA inh = 0
# Cc1ccc(C(=O)CSc2nnc(-c3ccccc3)o2)cc1 @ Beta2AR agonist = -4
# Cc1ccc(C2NS(=O)(=O)N=C2N)cc1 (stereo unspecified) @ ALR H2O2 inh = -2
# COc1ccccc1NC(=O)c1ccc2snnc2c1 @ ALR H2O2 inh = -16
# CCN(CC)CCn1nc2c3c(cccc3c1=O)-c1ccccc1-2 @ Beta2AR agonist = -2

# Entries of single compounds as entered above. Values in the order: FGF22 binding | ALR H2O2 inh | Ecoli rRNA inh | Ecoli rRNA inh OD600 | Ecoli rRNA inh RFP | UCH37 inh | HNF4A DNA FP | E coli growth | Beta2AR agonist
# Profile of CCOC(=O)C1CCN(C(=O)CN2C(=O)c3cccnc3Oc3ccccc32)CC1 : i | 7 | -3 | -5 | -15 | -2.1 | 1.3 | 0.68 | 17
# Profile of CC1(C)CC(=O)C2=C(C1)NC(=O)CC2c1cccc(F)c1 (stereo unspecified) : . | 3 | . | . | . | 2.9 | 3.1 | 0.73 | 1
# Profile of O=C(COC(=O)CCC(=O)c1cccs1)Nc1ccc(Cl)cn1 : . | -4 | 11 | 7 | 4.3 | -0.7 | 3.0 | 0.7 | 4
